Screening results deposited in PubChem by several laboratories.
Env fusion inh: HIV envelope-mediated fusion inhibition. HeLa-JRFL Env/CEM21 cell fusion, luciferase. inhibition, % at 12.3 µM. 1.1% of 360,000 active. AID 651610;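 active = mean replicate inhibition score of at least 50 and every replicate individually at or above 50; inconclusive = only one of the two criteria met; inactive = mean below 50 and not all replicates reaching 50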;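 note: 0% = plate neutral controls and 100% = maraviroc near 300 nM; one replicate is shown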
MT1-MMP act inh: inhibitors of human MT1-MMP activation | P50281 | HT1080 RFP-PRO-GFP cells, GFP/RFP ratio fluorescence, overnight; percent of plate control window, DMSO zero | GFP/RFP ratio change, % at 20 µM | 0.061% of 360,000 active;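 active = GFP/RFP ratio change of at least 30% with cell ATP level not reduced by more than half and red fluorescence within 50% of control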; note: strong numbers were not always called active
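system = RFP-PRO-GFP reporter HT1080 cells | dosing = 20 µM single dose, 1% DMSO | timing = overnight cell settling, then overnight compound exposure, 37 °C, 5% CO2 | read-out basis = GFP/RFP fluorescence ratio | controls = DMSO and RFP-L50D-GFP cell wells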
CSC inhib: blocks cancer stem cells | 1.1% of 300,000 active | cancer stem cell-like cells viability, luminescence | inhibition, % at 7.5 µM;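 active = mean at 75% or more and at least half the replicates too; inconclusive = mean and replicates disagree; tested in HMLE shEcad cells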;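 note: 0% = median of negative and 100% = median of positive control wells; the first replicate is given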
PABP FP inh: blocks human PABP binding to poly(A) RNA | 1% of 290,000 active | inhibition, % at 35 µM | fluorescence polarization | P11940;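 active = 50% or more with normal probe brightness, or confirmed in later tests; inconclusive = above 50% with abnormal brightness, or retests that disagree; inactive = below 50% or failed in later tests; about a fifth of its hits are not listed in these tables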;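 note: calls also rest on retests at 20 µM and on dose response follow-up; controls were probe without protein and protein plus probe with vehicle; some compounds called inactive have numbers as strong as hits; many hits fall short of the cut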
Rce1 inhib: yeast Ras-converting enzyme inhibition | Q03530 | yeast membranes, quenched prenylated peptide cleavage fluorescence | calls only | 0.27% of 290,000 active;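 active = fall in fluorescence gain of 50% or more versus controls, with final raw signal at or below 3038400; inconclusive = same 50% fall but final raw signal above 3038400; inactive = fall in fluorescence gain under 50%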;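 note: plate controls were neutral control wells for no effect and wells lacking membranes for full effect; tested at 10 µM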
Target sequence (Q03530 whole entry, looked up): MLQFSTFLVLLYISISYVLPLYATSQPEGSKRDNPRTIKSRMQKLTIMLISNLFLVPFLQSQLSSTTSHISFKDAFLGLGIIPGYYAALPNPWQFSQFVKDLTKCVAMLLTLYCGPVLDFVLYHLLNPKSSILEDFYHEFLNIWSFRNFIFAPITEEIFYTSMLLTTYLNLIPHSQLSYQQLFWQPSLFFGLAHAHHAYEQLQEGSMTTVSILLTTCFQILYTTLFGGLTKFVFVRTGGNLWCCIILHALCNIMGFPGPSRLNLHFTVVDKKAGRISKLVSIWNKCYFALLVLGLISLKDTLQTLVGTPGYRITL
eIF4H inh: inhibitors of RNA binding by human eIF4H; inhibition, % at 35 µM; 0.94% of 290,000 active; Q15056; eIF4H fluorescence polarization binding assay; AID 2012;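 active = 50% or more with normal probe brightness, or confirmed in later tests; inconclusive = above 50% with abnormal brightness, or retests that disagree; inactive = below 50% or failed in later tests; about a fifth of its hits are not listed in these tables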;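 note: calls also rest on retests at 20 µM and on dose response follow-up; 0% = protein and probe with vehicle and 100% = probe without protein; strong numbers were not always called active; many hits fall short of the cut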
Yeast UUG start: alters start codon recognition fidelity in yeast. S. cerevisiae UUG-firefly luciferase reporter, luminescence/redox ratio. activity score, % at 18.7 µM. 0.13% of 350,000 active. AID 602363;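 active = replicate mean at a twofold rise or more, about +100% in these data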;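 note: firefly luciferase made from a UUG start codon reports start codon fidelity; reporter light over untreated wells divided by growth signal over untreated wells; some hits fall short of that in this replicate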
eIF4H inh retest: recorded beside eIF4H inh, whose call it bears; inhibition, %; compound at 20 µM; confirmation average;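 mean of two retest wells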
PABP FP inh retest: further read-out of PABP FP inh, marked with its call; inhibition, %; compound at 20 µM; confirmation repeats;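 mean of two retest wells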
MT1-MMP act inh RFP: second read-out of MT1-MMP act inh, no call of its own (marks repeat the call); RFP signal change, %; measured here: RFP expression control read;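 0 = vehicle wells; hits needed this value within 50% of zero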
An asterisk follows results filed as active; i = inactive; ? = inconclusive; / = no result given. This is a subset; rates above refer to the full screens.

SMILES | Env fusion inh | MT1-MMP act inh | MT1-MMP act inh RFP | CSC inhib | PABP FP inh | Rce1 inhib | eIF4H inh | Yeast UUG start | others
COc1ccccc1NC(=O)CCC(=O)N1CC(C)Oc2ccc(C)cc21 (stereo not drawn) | -5 | -1 | 1 | -2 | -4 | i | -10 | -13
Cc1cc(C)cc(OCC(=O)NCc2cc(C)nc3ccccc23)c1 | 31 | -2 | -2 | -12 | 6 | i | -12 | -15
COc1cccc(OC)c1OCC(=O)Nc1ccc(S(=O)(=O)N2CCCC2)cc1 | 7 | -12 | -26 | -9 | / | / | / | 3
O=C(C[n+]1cc(-c2ccccc2)n2c1CCC2)c1cccs1 | -7 | 1 | -3 | -4 | 2 | i | 15 | -11
COc1ccc(S(=O)(=O)N2CCCC(C(=O)NCc3ccco3)C2)cc1Cl (stereo not drawn) | / | 1 | -2 | / | 12 | i | -3 | 9
Cc1nn(Cc2n[nH]c(=S)n2Cc2ccccc2)c(C)c1Cl | / | 1 | 15 | -4 | -5 | i | -1 | -8
CCCCCCn1c(CN2CCN(Cc3ccccc3)CC2)nc2c1c(=O)n(C)c(=O)n2C | -111 | -20 | -8 | -3 | 5 | i | -4 | -9
CCC(=O)Nc1ccc(C(=O)CN2CCC(C)CC2)cc1 | / | / | / | -3 | 8 | i | 1 | /
CC1CC(C)CN(CC(=O)NC(c2ccccc2)c2ccccc2)C1 (stereo not drawn) | 12 | -4 | -1 | -7 | 19 | i | 8 | /
COCCNC(=O)CC(=O)N/N=C/c1ccc(C(=O)OC)cc1 | -12 | -1 | -1 | -6 | -10 | i | -7 | -17
COc1ccccc1CNC(=O)c1ccc(Cl)c(S(=O)(=O)N2CCCC2)c1 | 16 | 0 | -3 | 0 | / | / | / | -13
COc1ccccc1C(=O)NCC(=O)OCC(=O)Nc1cccc(S(=O)(=O)N2CCCCCC2)c1 | -1 | -1 | 2 | -6 | 13 | / | 6 | /
CCOC(=O)N1CCN(C(c2ccc(F)cc2)c2sc3nc(C)nn3c2O)CC1 (stereo not drawn) | 2 | 1 | 9 | -7 | 0 | i | -10 | -21
CCC(C)(C(=O)Nc1ccccc1C)N(C(=O)CNC(C)=O)c1ccc(C)cc1 (stereo not drawn) | -20 | 5 | 6 | -20 | 3 | i | -1 | /
COc1ccc([N+](=O)[O-])cc1NS(=O)(=O)c1cccc(C(=O)O)c1 | 6 | 1 | 2 | -19 | 5 | i | 0 | -19
COc1ccc(/C=C(\C#N)C(=O)Nc2ccccn2)cc1 | 2 | -1 | 2 | 0 | 2 | i | -7 | -14
CC(C)(C)S(=O)N1Cc2cc(CO)cc(CCO)c2[C@H]1CCO (stereo partly drawn) | 8 | 2 | 7 | / | / | / | / | -8
CC(=O)c1cccc(NC(=O)[C@@H](NC(N)=O)C(C)C)c1 | 5 | 0 | 0 | -4 | -5 | i | -13 | /
Cc1cccc(NC(=O)c2cc(S(=O)(=O)NCc3ccco3)ccc2F)c1C | -102 | -9 | -5 | 3 | 8 | i | 3 | -2
O=C(Nc1nccs1)c1ccc(-c2ccccc2[N+](=O)[O-])o1 | -126 | 1 | 1 | -17 | 16 | i | 18 | -10
C#CCCOC(=O)N1C2=NC(C(=O)OC)=C(C(=O)OC)[C@@H]3N(Cc4ccccc4)c4ccccc4[C@]23C[C@H]1C(=O)OC | / | -1 | -1 | -21 | 14 | i | -1 | -10
O=C1OCCN1C(=O)[C@H]1[C@H](c2ccc(Cl)cc2)C(c2ccccc2)=NN1c1ccccc1 | -12 | -1 | -2 | / | / | / | / | 3
Clc1ccc(Sc2oc(/C=N/n3cnnc3)cc2Br)cc1 | -48 | -3 | -2 | -12 | 43 | i | 4 | -4
COc1ccc2cc(C(=O)C3CCCN(C(=O)c4cnn(C(C)C)c4)C3)ccc2c1 (stereo not drawn) | -9 | -2 | -1 | 7 | -6 | i | -8 | 2
CCOC(=O)c1c(C=O)c2sc(C)cc2n1C | -19 | -12 | 0 | 0 | -2 | i | 4 | -16
COc1cc(OC)c2cc(C(=O)N/N=C/c3cccc(OC)c3O)[nH]c2c1 | 12 | -1 | -4 | 125* | -2 | i | 16 | -18
CC(=O)N1c2ccc(S(=O)(=O)N3CCCC(C(=O)NCc4ccccc4Cl)C3)cc2CC1C (stereo not drawn) | 0 | 4 | -12 | -19 | 27 | i | 4 | -5
CCOC(=O)c1sc(Nc2nc(C)cc(OC)n2)nc1C | -29 | 3 | -5 | -4 | 6 | i | 4 | -15
C=CCn1c2ccccc2c2nnc(SC(CC)C(=O)Nc3nc(C)c(C(=O)OCC)s3)nc21 (stereo not drawn) | -99 | -25 | -21 | 4 | -1 | i | 2 | -10
CCOC(=O)c1sc2ncnc(N3CCN(C)CC3)c2c1C | 5 | 0 | 0 | -45 | 1 | i | -7 | /

Structures listed so far with an NH in an aromatic ring (two):
SMILES | Env fusion inh | MT1-MMP act inh | MT1-MMP act inh RFP | CSC inhib | PABP FP inh | Rce1 inhib | eIF4H inh | Yeast UUG start | others
Cc1nn(Cc2n[nH]c(=S)n2Cc2ccccc2)c(C)c1Cl | / | 1 | 15 | -4 | -5 | i | -1 | -8
COc1cc(OC)c2cc(C(=O)N/N=C/c3cccc(OC)c3O)[nH]c2c1 | 12 | -1 | -4 | 125* | -2 | i | 16 | -18

(cont.)
SMILES | Env fusion inh | MT1-MMP act inh | MT1-MMP act inh RFP | CSC inhib | PABP FP inh | Rce1 inhib | eIF4H inh | Yeast UUG start | others
CCOc1nc(-c2ccccc2)c2cc(Br)ccc2n1 | -6 | -7 | -7 | -14 | 4 | i | -11 | -8
O=C(CN1CCCN(Cc2ccc(F)cc2Cl)C1=O)NC1CCCC1 | 14 | 0 | -1 | -11 | 3 | i | -1 | -9
CCOCCn1c(CC)nc2ccccc21 | 13 | 2 | 0 | -11 | -1 | i | 2 | -16
O=C(CNCC(=O)Nc1ccc(F)c(F)c1F)Nc1ccc(F)c(F)c1F | 7 | 0 | 1 | -18 | 13 | i | 9 | -2
COCCn1c(SCC(=O)Nc2ccccc2C)nc2c(oc3ccccc32)c1=O | 28 | -10 | -7 | 14 | 7 | i | -10 | /
Cn1c(NCC(O)CO)nc2c1c(=O)n(Cc1ccc(Cl)c(Cl)c1)c(=O)n2C (stereo not drawn) | / | 7 | -2 | -3 | 4 | i | -4 | 10
CCn1c(SCC(=O)N2CCCC(C)C2)nnc1-c1ccco1 (stereo not drawn) | 3 | -2 | -5 | -13 | 10 | i | 6 | -21
O=C(N/N=C\c1c(O)ccc2ccccc12)c1cncc(Br)c1 | 21 | -166 | -6 | 98* | ? | i | ? | -10
O=C(CN1C(=O)NC2(CCCCCC2)C1=O)NCc1ccccc1 | -3 | -2 | 2 | -20 | / | / | / | 8
CCn1ncc(/C=N/O)c1C | / | -4 | -4 | 5 | 6 | i | 5 | -12
CC(Sc1nnc(-c2ccc(O)cc2)o1)C(=O)Nc1cccc2ccccc12 (stereo not drawn) | -65 | -4 | 1 | -26 | -2 | i | -2 | -8
Cn1cc(C(=O)C(=O)NC2CC2)c2ccccc21 | -1 | 1 | 4 | / | / | / | / | -16
Cc1ccc(CNC(=O)C2CCN(S(=O)(=O)c3cccc4nonc34)CC2)cc1 | 2 | -1 | 0 | -15 | -1 | i | -5 | -33
Cc1cccc2cc(C#N)c(SCC(=O)NNC(=O)Cc3ccccc3)nc12 | -41 | -9 | -7 | -7 | -6 | i | -5 | 5
O=C(Cc1cccc2ccccc12)NCCOc1ccccc1F | 12 | -1 | -2 | / | -10 | i | -2 | -11
CC(C)CC(=O)CN1C(=O)C2(OCCO2)c2ccccc21 | -8 | -2 | 3 | -3 | 0 | i | -20 | -10
C/C(NC1CCCC1)=C(/C#N)C(N)=O | -31 | 0 | 4 | 6 | 1 | i | -3 | -13
CC1=C(n2nnc3ccccc32)C(c2ccccc2)C(C#N)=C(N)O1 (stereo not drawn) | / | -3 | 3 | 8 | 15 | i | -11 | -16
CCN1CCN(c2nc(Nc3cc(OC)ccc3OC)nc(Nc3cc(OC)ccc3OC)n2)CC1 | 4 | -4 | -8 | -9 | 3 | i | -1 | -19
O=c1ccc2cc([N+](=O)[O-])c(CCO)cc2o1 | 18 | 3 | 4 | -2 | 1 | i | 2 | -17
CCN(CC)CCCC(C)Nc1nccc2c(Cl)cccc12 (stereo not drawn) | 2 | 1 | 0 | / | / | / | / | -5
CCCCCCn1cc(C(=O)O)c(=O)c2cc(F)c(N3CCN(C(=O)OCC)CC3)cc21 | 3 | -5 | 1 | 13 | -7 | i | 3 | -10
CCn1c2ccccc2c2cc(/C=N/NC(=O)c3ccncc3)ccc21 | -231 | -6 | -4 | -10 | 5 | i | 4 | -11
Cn1cc(CN2CCC(C(=O)N3CCCC3)CC2)c(-c2ccccc2F)n1 | 2 | -2 | 3 | -10 | -5 | i | -7 | /
COc1ccc(N(C(=O)c2ccco2)S(=O)(=O)c2cccc([N+](=O)[O-])c2)cc1 | / | 7 | -1 | -9 | -2 | i | 7 | -3
Cn1c(-c2ccccc2)cnc1N | -102 | 14 | 6 | 24 | -1 | i | -9 | -3
O=C1c2ccccc2C(=O)N1CCCCc1cn(C[C@H]2CC[C@@H]([C@@H]3CC[C@H](Cn4cc(CCCCN5C(=O)c6ccccc6C5=O)nn4)O3)O2)nn1 | 44 | -7 | -21 | -12 | / | / | / | -1
CCOC(=O)N1CCN(Cc2nc3cc(NC(C)=O)ccc3n2CC)CC1 | 8 | 0 | -2 | -12 | 3 | i | -5 | -3
OCCCN1CCN(CCOc2ccccc2-c2ccccc2)CC1 | 14 | 6 | 4 | 21 | -7 | i | 8 | /
Cc1cc(C)n2[nH]c(=O)c(N=Nc3cccc(C(F)(F)F)c3)c2n1 | / | 10 | 2 | 17 | -6 | i | -8 | -23
COc1ccccc1NC(=O)N(CCN(C)C)Cc1cc2cc(C)ccc2[nH]c1=O | / | -1 | -1 | -2 | 1 | i | 5 | -9
COc1cccc2cc(C(=O)OCC(=O)NC3CCCC(C)C3C)c(=O)oc12 (stereo not drawn) | 9 | 6 | -2 | / | / | / | / | -9
Cc1ccccc1CSc1ccc(-c2ccc3c(c2)OCO3)nn1 | / | 6 | 0 | 87* | 71 | i | -5 | -24 | eIF4H inh retest=0;PABP FP inh retest=12
Nc1nc(-c2ccccc2)cn1/N=C/c1ccccc1 | -40 | 1 | -2 | -12 | -12 | / | -7 | -16
Oc1cccc(C(O)CNCc2ccc(OCc3ccc(Cl)cc3Cl)cc2)c1 (stereo not drawn) | -6 | 2 | -4 | 78* | 5 | i | -2 | /
Cc1cc(C)n(C(=O)Cn2nc(C)c(Br)c2C)n1 | -5 | 2 | 5 | -9 | 0 | i | 5 | 0
O=C(O)c1cccnc1SCc1ccc([N+](=O)[O-])cc1 | 15 | -2 | 0 | -6 | 6 | i | -12 | -11
CN(C(=O)COC(=O)CSc1cc(Cl)ccc1Cl)c1c(N)n(Cc2ccccc2)c(=O)[nH]c1=O | / | 0 | -1 | 4 | / | i | / | 9
COc1ccc(OC)c(C2C3=C(N=C4SCC(=O)N42)c2ccccc2CC3)c1 (stereo not drawn) | / | -7 | 1 | / | 15 | i | 6 | /
N/C(=N\OS(=O)(=O)c1cccc([N+](=O)[O-])c1)c1ccncc1 | / | 1 | 3 | -11 | -9.3* | i | 74* | -14 | eIF4H inh retest=89*;PABP FP inh retest=75*
CCCCN1C(=O)C(=O)N(CC(=O)c2ccc3c(c2)CCCC3)C1=O | 7 | 0 | 4 | / | / | / | / | -5
